Source: PubChem (Broad Institute)
Ecoli rRNA inh: selective bacterial rRNA inhibition in E. coli; E. coli WT GFP vs humanized-ribosome RFP mutants, fluorescence, 24 h; hits give low values; DMSO median 0, no signal -100; GFP signal change (wild-type ribosome), % (test concentration not listed); actives 1.6% (n = 350,000); AID 720706;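 active = significant combined selectivity score with lowered wild-type GFP, culture density cut under 30%, mutant RFP and density less affected; inactive = any of these conditions unmet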; note: one replicate is shown; some compounds called inactive have numbers as strong as hits
RanGTP-Imp inh: disruptors of Ran-importin-beta complex formation – biochemical, FRET, CFP-Ran, YFP-importin-beta, homogeneous, primary screen. cell-free CFP-Ran/YFP-importin-beta FRET ratio. inhibition, % (concentration not given with the values). actives 1.1% (n = 300,000). AID 2216;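 active = most replicates above 15%; inconclusive = exactly half above 15%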;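 note: 0% = DMSO wells and 100% = Ran loaded with GDP instead of GTP; wells of about 40 µL received 100 nL stock; the first replicate is given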
AF4-AF9 inh: blocks AF4 peptide binding to human AF9 | P42568 | AlphaScreen, biotin-AF4 peptide binding to FLAG-AF9 | actives 0.47% (n = 350,000) | inhibition, % at 10 µM | AID 651704;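 active = every replicate reaching a set inhibition limit, whatever the replicate mean, cut at about 25% in these data; inconclusive = mean inhibition reaches that limit but some replicates miss it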;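 note: 0% = plate neutral control median and 100% = total signal loss; the record names both 10 and 1 µM as test concentration; the first replicate is given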
Target sequence (P42568 whole entry, looked up): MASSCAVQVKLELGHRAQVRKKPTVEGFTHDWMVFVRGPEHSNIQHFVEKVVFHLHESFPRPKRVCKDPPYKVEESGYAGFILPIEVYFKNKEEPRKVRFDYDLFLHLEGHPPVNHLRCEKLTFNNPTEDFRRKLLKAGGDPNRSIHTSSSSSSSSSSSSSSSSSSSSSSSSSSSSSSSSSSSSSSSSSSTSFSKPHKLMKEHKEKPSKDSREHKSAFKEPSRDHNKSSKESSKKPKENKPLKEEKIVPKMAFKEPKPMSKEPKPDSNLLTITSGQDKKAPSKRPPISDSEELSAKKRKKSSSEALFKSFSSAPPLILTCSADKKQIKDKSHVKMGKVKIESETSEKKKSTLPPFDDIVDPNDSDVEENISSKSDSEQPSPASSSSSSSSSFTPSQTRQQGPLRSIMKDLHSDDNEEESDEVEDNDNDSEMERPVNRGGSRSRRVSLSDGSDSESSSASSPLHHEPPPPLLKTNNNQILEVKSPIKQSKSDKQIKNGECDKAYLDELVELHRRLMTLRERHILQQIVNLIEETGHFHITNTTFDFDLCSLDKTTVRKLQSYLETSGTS
ALR H2O2 inh: blocks human ALR sulfhydryl oxidase activity; inhibition, % (no concentration beside the values); AID 485317; actives 3.8% (n = 290,000); purified ALR, DTT oxidation, H2O2 HRP-luminol luminescence; P55789;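 active = mean and each replicate at 75% or more; inconclusive = only one of the two met; inactive = neither met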;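 note: stock transfer was 7.5 nL into about 7.5 µL; 0% = neutral wells and 100% = wells with inactivated enzyme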
Target sequence (P55789 whole entry, looked up): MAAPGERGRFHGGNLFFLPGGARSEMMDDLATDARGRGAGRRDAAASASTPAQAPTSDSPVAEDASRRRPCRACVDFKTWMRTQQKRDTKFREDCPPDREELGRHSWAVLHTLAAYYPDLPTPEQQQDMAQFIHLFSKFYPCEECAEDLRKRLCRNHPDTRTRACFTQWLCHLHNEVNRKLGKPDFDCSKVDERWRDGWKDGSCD
T cruzi inh: blocks replication of Trypanosoma cruzi; inhibition, % (test concentration not listed); AID 1885; T. cruzi beta-gal in NIH3T3, luminescence, 90 h; actives 1.4% (n = 300,000);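 active = mean inhibition across valid replicates above about 55%, limit read from the data; inconclusive = mean below that limit but half or more replicates reach it; inactive = mean below it, under half of replicates reach it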;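 note: signal also drops with host cell toxicity which is not excluded here; 0% = plate median of DMSO wells and 100% = zero luminescence signal; higher percent means less beta-gal luminescence so fewer parasites; stock transfer was 50 nL into about 50 µL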
Beta cell apopt: blocks beta cell apoptosis. INS-1E cytokine-induced death, ATP luminescence, 48 h; percent of positive-control rescue, neutral wells zero. protection from apoptosis, % (concentration not given with the values). actives 0.8% (n = 300,000);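 active = all replicates at 75% or more, or half of them and the mean; inconclusive = half reach 75% but not the mean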;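 note: 0% = cytokine-treated negative control wells and 100% = positive control rescue; higher means more ATP so stronger rescue from cytokine killing; wells of about 40 µL received 100 nL stock; the first replicate is given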
Calb FLC: C. albicans growth modulation with fluconazole; AID 1979; growth inhibition, % (no concentration beside the values); actives 0.57% (n = 300,000); C. albicans CaCi-2 (fluconazole-resistant clinical isolate) + fluconazole, Alamar Blue growth, 48 h;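 active = most replicates above 75%; inconclusive = exactly half above 75%; inactive = most below 75%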;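 note: all wells also contain fluconazole at 8 µg/ml as a sub-toxic cotreatment; 0% = median of DMSO wells and 100% = median of geldanamycin control wells; wells of about 8 µL received 7.5 nL stock; the first replicate is given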
FGF22 binding: FGF22 (human) thermal shift binding. Q9HCT0. recombinant FGF22 thermal shift, SYPRO orange fluorescence; percent of sucrose octasulfate shift, DMSO zero. calls only at 9.99 µM. actives 1.5% (n = 340,000). AID 651658;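 active = melting point raised past a set limit in the mean and every replicate; inconclusive = no clear call; three in four hits are not shown here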
Target sequence (Q9HCT0 whole entry, looked up): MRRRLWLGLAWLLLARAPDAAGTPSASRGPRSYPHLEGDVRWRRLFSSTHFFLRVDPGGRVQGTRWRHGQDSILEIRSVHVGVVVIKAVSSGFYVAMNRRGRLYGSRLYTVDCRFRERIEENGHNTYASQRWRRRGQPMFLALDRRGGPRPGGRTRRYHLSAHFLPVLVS
Ecoli rRNA inh OD600: further read-out of Ecoli rRNA inh, marked with its call; OD600 change, %; measured here: OD600 growth;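 optical density of the mix in the first replicate; 0 = DMSO median and -100 = no signal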
Ecoli rRNA inh RFP: second read-out of Ecoli rRNA inh, no call of its own (marks repeat the call); RFP signal change, %; measured here: RFP humanized mutant strains;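 first replicate; 0 = DMSO median and -100 = no signal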
The depositor's hits bear a star; i = inactive; ? = inconclusive; · = no result given. Not all compounds are listed; rates above refer to the full screens.

SMILES	Ecoli rRNA inh	Ecoli rRNA inh OD600	Ecoli rRNA inh RFP	RanGTP-Imp inh	AF4-AF9 inh	ALR H2O2 inh	T cruzi inh	Beta cell apopt	Calb FLC	FGF22 binding
CCC(C)NC(=O)CSc1ccc(Cl)cc1 (stereo not given)	·	·	·	2.3	·	-9	4	-5	-6	·
COCCNC(=O)c1c(CS(=O)(=O)c2ccccc2)noc1C(=O)NCc1ccccc1	3	11	-2.5	-3.1	-8.1	-10	-7	-4	-19	i
O=C(NCCCc1ccccc1)[C@@H]1Cc2ccccc2CN1	7	7	-1.4	-1.0	-2.9	-4	8	0	-6	i
CC(=O)Nc1ccc(S(=O)(=O)Nc2ccc(Nc3ccccc3)cc2)cc1	-17	-31	-0.6	-3.9	7.8	99*	-12	0	-6	i
Cc1ccc(Cl)cc1N(CC(=O)Nc1cccc(N(C)S(C)(=O)=O)c1)S(C)(=O)=O	6	-6	0.9	0.8	0.3	-15	-1	-2	20	i
Cc1c(Br)c(O)c(Br)c2sc(=O)oc12	-13	11	3.3	·	-10	34	·	-20	·	i
COc1cccc(C(=O)NCc2ccc3c(c2)OCO3)c1OC	12	11	0.1	?	1.1	-23	11	0	8	i
CCc1nnc(SCC(=O)N2CCCC(N3CCN(c4ccccc4C)CC3)C2)o1 (stereo not given)	3	0	-1.3	2.7	-0.4	11	25	5	-4	i
Cc1c(C(=O)C(=O)NCc2ccco2)c2ccccc2n1C	9	10	-3.6	3.4	-2.5	-3	-8	2	3	i
O=C(COc1nc2ccccc2nc1N1CCOCC1)Nc1cccc(S(=O)(=O)N2CCCCC2)c1	-3	-8	-0.1	0.3	15	1	20	-7	-9	i
COc1ccc(NC(=O)c2cn(C)c(=O)c3cc(OC)c(OC)cc23)c(OC)c1	-2	3	2.4	-5.3	-1.9	·	-5	2	-12	i
Cc1ccc(OCC(=O)N/N=C/c2cccnc2)cc1	9	12	1.0	1.0	1.5	-6	-6	-5	-12	i
COc1cc(CN2CCN(Cc3ccc(C(F)(F)F)cc3)CC2)cc(OC)c1OC	4	6	-1.2	4.4	5.0	-7	27	3	-4	i
CSc1ccccc1C(=O)N1CCN(c2ncccn2)CC1	6	14	2.7	-1.4	-2.3	-11	-2	-1	-6	·
Oc1ccc(Cl)cc1CNc1cnc2ccccc2c1	-12	-51	1.8	?	0.0	27	-16	·	-17	i
COc1ccc(-c2nn(-c3ccccc3)cc2/C=C\C(=O)Nc2ccc(C(=O)O)cc2)cc1	-9	-9	0.5	4.3	4.2	-2	1	9	28	i
Cc1ccc(C)c(C(=O)COC(=O)CNS(=O)(=O)c2ccccc2)c1	2	1	1.8	-0.7	-0.6	11	4	·	-2	i
CC(C)(CN1CCCCC1)NS(=O)(=O)c1ccc(Cl)cc1	·	·	·	4.2	·	2	-6	1	-3	·
Cc1noc(C)c1CC(=O)N1CCCC(C(=O)c2ccc(C(C)(C)C)cc2)C1 (stereo not given)	-24	-39	-6.6	?	-0.7	-8	8	8	-5	i
FC(F)(F)c1ccc(/C=N/NC(=S)NC2CCCCC2)cc1	5	9	1.9	-2.9	-2.0	2	19	4	5	·

Three entries from above, ordered by SMILES length, low to high.
SMILES	Ecoli rRNA inh	Ecoli rRNA inh OD600	Ecoli rRNA inh RFP	RanGTP-Imp inh	AF4-AF9 inh	ALR H2O2 inh	T cruzi inh	Beta cell apopt	Calb FLC	FGF22 binding
Cc1c(Br)c(O)c(Br)c2sc(=O)oc12	-13	11	3.3	·	-10	34	·	-20	·	i
FC(F)(F)c1ccc(/C=N/NC(=S)NC2CCCCC2)cc1	5	9	1.9	-2.9	-2.0	2	19	4	5	·
CC(=O)Nc1ccc(S(=O)(=O)Nc2ccc(Nc3ccccc3)cc2)cc1	-17	-31	-0.6	-3.9	7.8	99*	-12	0	-6	i

(continued)
SMILES	Ecoli rRNA inh	Ecoli rRNA inh OD600	Ecoli rRNA inh RFP	RanGTP-Imp inh	AF4-AF9 inh	ALR H2O2 inh	T cruzi inh	Beta cell apopt	Calb FLC	FGF22 binding
COc1cc(/C=C/C(=O)N2CCc3ccccc3C2)cc(OC)c1OC	-22*	-17*	0.8*	4.7	1.5	29	9	-1	-11	i
CC(C)CNC(=S)NC1CC2CCCC(C1)N2C1CCCCC1 (stereo not given)	14	23	-4.6	0.4	-0.8	0	-6	0	-21	i
CNC(=O)CSc1nc2ccccc2c(=O)n1CCc1ccccc1	11	9	0.4	-4.0	-10	10	-15	12	7	i
Cc1ccc(NC(=O)OCC(F)(F)C(F)F)cc1NC(=O)OCC(F)(F)C(F)F	·	·	·	0.0	·	-1	-7	2	?	·
Clc1ccccc1N1CCN(c2ncnc3nc[nH]c23)CC1	2	6	1.2	9.1	0.9	1	7	-10	11	i
Cc1ccc(S(=O)(=O)N2CCOCC2)cc1C(=O)OCC(=O)NCc1ccc2c(c1)OCO2	3	-6	1.8	·	-3.4	-3	·	-4	·	i
O=C(O)c1cc(-c2ccccc2)n(-c2ccccc2)n1	·	·	·	0.1	·	1	-8	-3	-7	·
Cc1cc(C(=O)Nc2ccon2)ccc1[N+](=O)[O-]	5	12	-3.0	-5.7	0.2	-12	·	·	-4	i
CCC(C(=O)NCCN1CCOCC1)n1nc(C)n2c(cc3sccc32)c1=O (stereo not given)	5	14	3.5	-0.2	1.2	-1	-22	-11	18	i
CCOc1ccccc1NC(=O)C(OC(=O)c1ccccc1NS(=O)(=O)c1cccs1)c1ccccc1 (stereo not given)	10	0	-1.5	0.2	1.1	-26	-4	-4	-1	i
C=CC[C@H](CC(=O)N(CCO)Cc1ccccc1)C(=O)N[C@@H](COC(=O)[C@H](CC=C)CC(=O)OC(C)(C)C)Cc1c[nH]c2ccccc12	19	11	-0.4	·	0.5	-20	·	-2	·	i
CCN(CC)C(=O)CNc1ccc(C(F)(F)F)cc1[N+](=O)[O-]	·	·	·	0.2	·	-4	1	-1	0	·
O=S(=O)(c1ccccc1)c1cnn2c(C(F)(F)F)cc(-c3ccccc3)nc12	·	·	·	-3.0	·	-3	26	-5	14	·
Cc1c(C#N)c2ccccc2n1CC(=O)N1CCc2ccccc2C1	3	4	-0.5	1.2	-0.4	-3	8	-9	-6	·
O=C(COc1ccc2ccc(=O)oc2c1)NCCCN1CCCC1=O	12	17	0.8	-0.9	-0.2	-2	-14	-3	-4	i
O=C(CCN1C(=O)/C(=C\c2cccs2)SC1=S)Nc1nccs1	·	·	·	-5.4	·	2	-33	-3	1	·
C[C@@]12C(=O)N(Cc3ccco3)CC(=O)N1[C@H]1c3ccccc3OC[C@@H]1[C@@H]2c1ccccc1	3	5	-3.0	·	6.9	-4	·	-1	·	i
CCCCn1c(SCC(=O)N2CCOCC2)nnc1-c1cccs1	3	-1	-4.4	8.1	-9.6	8	-8	1	6	i
O=c1[nH]c(SCc2cccc(F)c2)nc2c1CCCC2	·	·	·	0.8	·	·	5	3	15	·
CCOC(=O)N1CCC(N2C(=O)c3ccccc3C2Nc2ccc(S(=O)(=O)N(CC)CC)cc2)CC1 (stereo not given)	-32	-47	-2.8	-1.0	1.0	-2	12	17	29	i
CC1(C)CN(c2cccc(-c3ccnc4ncnn34)c2)C1=O	15	7	3.7	2.4	-0.3	-4	-8	-2	7	i
Cc1ccsc1C(=O)OCC(=O)NCCC1=CCCCC1	8	5	-2.3	-0.3	0.5	-6	-15	-4	-8	i
COCCCn1c(=O)/c(=C\c2ccccc2OC(F)F)s/c1=C(/C#N)C(=O)N1CCOCC1	-2	-8	0.9	-2.5	11	-11	25	·	-26	i
Cc1ccc2cc(C#N)c(NCCNC(=O)C3CCC3)nc2c1C	·	·	·	19*	·	-33	5	0	-12	·
O=S(=O)(Nc1ccc(Cl)cn1)c1ccc(F)cc1	7	11	-0.3	3.6	2.4	-16	0	-1	21	i
Cc1ccccc1Cn1c(C(=O)OC(C)C)cc2c1ccn2C	·	·	·	?	·	-13	17	14	4	·
O=C(O)CCn1c(C(=O)O)cc2sccc21	·	·	·	-0.4	·	0	0	-3	9	·
Cc1cc(C)n(-c2ccc(S(N)(=O)=O)cc2[N+](=O)[O-])n1	3	6	0.4	-0.8	2.5	-3	-15	-6	-11	i
ON/C=N/C(=S)Nc1ncc(C(F)(F)F)cc1Cl	-29	-24	-3.2	-0.9	0.0	25	3	-6	14	i
CC1(C)CC(=O)C=C(NCC2CCCO2)C1 (stereo not given)	0	5	-2.3	-1.4	1.9	-11	-5	1	-9	i
COc1ccc2[nH]cc(CCN3C(=O)c4ccc(C(=O)O)cc4C3=O)c2c1	-2	7	0.0	-1.1	-0.4	0	-9	0	1	i
COc1cccc(/C=N/n2cnc3ccccc32)c1OC	·	·	·	-0.8	·	5	1	-3	37	·
O=S(=O)(Nc1ccc2cn[nH]c2c1)c1ccc(Cl)cc1	·	·	·	?	·	-3	-1	3	11	·
C/C(CC(=O)Nc1ccc2c(c1)OCCO2)=N\NC(=O)COc1cccc(C)c1	4	-1	-3.8	2.3	-6.3	·	2	-4	-19	i
CCn1c(-c2ccccc2)c[nH]c1=S	·	·	·	-1.3	·	99*	-15	-7	-2	·
Cc1ccc(Cn2nnc3c(=O)[nH]c(C4CCN(S(=O)(=O)c5ccccc5)CC4)nc32)cc1	-18	-48	24	5.7	7.0	0	-4	2	-8	i
O=Cc1ccc(Oc2nc(Cl)ncc2F)cc1	22	20	1.6	1.9	-0.3	-3	-7	·	-9	i
Cc1ccc2c(c1)[nH]c1c(=O)n(Cc3ccco3)cnc12	10	9	1.8	-1.0	-2.4	-2	-6	-16	-3	i
O=C1C2C3C=CC(C3)C2C(=O)N1CNc1ccccn1 (stereo not given)	·	·	·	3.4	·	-3	-7	-24	-24	·
O=C(Nc1ccc(F)cc1)c1cc(S(=O)(=O)Nc2ccc(F)cc2)cs1	-57	-81	-19	-1.7	·	-14	-5	4	3	·
COc1ccc2c(c1)O[C@H](c1ccc3c(c1)OCO3)[C@@H](OC(=O)N[C@H](C)C1CCCCC1)C2=O	·	·	·	-2.2	·	0	-2	43	-11	·
CC(CCc1ccccc1)NC(=O)c1ccc(Cl)nc1 (stereo not given)	·	·	·	-7.1	·	-12	9	-9	-3	·
CC1CCC2C(=O)N(c3ccc(NC4CCCCC4)c([N+](=O)[O-])c3)C(=O)C2C1 (stereo not given)	·	·	·	?	·	5	3	-2	-3	·
CC(Oc1ccc(Cl)cc1)C(=O)Nc1ccc(S(=O)(=O)Nc2nccs2)cc1 (stereo not given)	-42	-51	-3.0	5.3	-0.8	5	-4	-4	1	i
CCCc1nnc(SCC(=O)N2C(C)CCCC2C)n1CC1CCCO1 (stereo not given)	·	·	·	5.0	·	-2	7	-4	-2	·
Nn1c(N2CCCCC2)nc2ccccc21	·	·	·	6.3	·	39	2	·	-18	·
Cc1cccc(Cl)c1OCCCn1ccnc1	-17	-14	-5.9	-2.2	1.2	-4	14	-1	-10	i
Cc1nn(CCC(=O)NCCc2ccccc2Cl)c(=O)c2nn(-c3ccccc3)c(C)c12	0	7	-1.4	-2.2	-1.4	3	9	-4	-32	i
C=CCN1C(=O)c2ccc(C(=O)N(C)CC(=O)Nc3ccccc3C(F)(F)F)cc2C1=O	10	9	0.0	?	-0.8	-3	-9	1	-12	i
